PV pol inh – poliovirus RNA polymerase inhibition; poliovirus polymerase elongation, fluorescence polarization; stronger effect = lower value; % elongation, % (compound at 16.7 µg/mL); AID 588519; 0.66% of 150,000 active; in the data active = % elongation below about 90%; note: some results filed as inactive read as strong as hits
Target sequence (P03300 1749-2209 limits assumed): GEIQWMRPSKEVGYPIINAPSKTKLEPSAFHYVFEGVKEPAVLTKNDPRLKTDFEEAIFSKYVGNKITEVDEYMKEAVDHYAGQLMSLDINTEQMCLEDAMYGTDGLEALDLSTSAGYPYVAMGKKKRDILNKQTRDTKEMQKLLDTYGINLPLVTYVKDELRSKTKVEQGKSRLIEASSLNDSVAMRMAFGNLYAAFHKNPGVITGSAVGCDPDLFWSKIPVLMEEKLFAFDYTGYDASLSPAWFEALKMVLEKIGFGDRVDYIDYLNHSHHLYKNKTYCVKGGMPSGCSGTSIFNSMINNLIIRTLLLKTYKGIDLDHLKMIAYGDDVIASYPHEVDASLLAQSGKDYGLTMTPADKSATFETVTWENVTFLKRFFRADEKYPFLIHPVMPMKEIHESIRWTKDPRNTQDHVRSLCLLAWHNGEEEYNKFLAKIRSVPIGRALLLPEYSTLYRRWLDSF
PV pol inh intensity – further read-out of PV pol inh, marked with its call; % elongation; measured here: total intensity read-out; formula for this scale not given here;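 total fluorescence in place of polarization; lower means less elongation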
An asterisk follows results filed as active.

SMILES | PV pol inh | PV pol inh intensity
Cc1cccc(-n2nnc(-c3nc(-c4ccccc4)no3)c2N)c1C | 110 | 112
Cc1ccc(CCNC(=O)CS(=O)Cc2nc(-c3ccccc3Cl)oc2C)cc1 (stereo not given) | 108 | 113
CCOc1ccc(CNC(=O)C2CCN(S(=O)(=O)c3cn(C)cn3)CC2)cc1OC | 105 | 115
Cc1cccc(N2CCN(S(=O)(=O)c3ccc4oc(=O)c5ncn(C)c5c4c3)CC2C)c1 (stereo not given) | 98 | 105
COC(=O)c1scc(-c2ccccc2)c1S(=O)(=O)Nc1ccc(C)c(Cl)c1 | 111 | 115
CCOC(=O)c1ccc(N2C(=O)c3[nH]nc(-c4ccc(OC)cc4)c3C2c2ccc(C)cc2)cc1 (stereo not given) | 112 | 111
Cc1cccc(OCC(=O)NCC2(N3CCN(C)CC3)CCCCC2)c1 | 105 | 110
CCSc1oc(-c2cccs2)nc1S(=O)(=O)c1ccc(Br)cc1 | 106 | 112
O=C(CSc1nnc(-c2ccc(Cl)cc2)o1)N1CCc2ccccc21 | 107 | 113
CCc1cccc(NC(=O)c2cc3c(=O)[nH]c4ccccc4c3n2C)c1 | 98 | 100

Continued; the last 3 above are carried over.
SMILES | PV pol inh | PV pol inh intensity
CCSc1oc(-c2cccs2)nc1S(=O)(=O)c1ccc(Br)cc1 | 106 | 112
O=C(CSc1nnc(-c2ccc(Cl)cc2)o1)N1CCc2ccccc21 | 107 | 113
CCc1cccc(NC(=O)c2cc3c(=O)[nH]c4ccccc4c3n2C)c1 | 98 | 100
COc1ccc(CCNC(=O)CCc2cn(Cc3ccc(C)cc3)c3ccccc23)c(OC)c1OC | 106 | 110
Cc1ccc(NC(=O)CN(C)S(=O)(=O)c2ccc3nc(C)sc3c2)c(C)c1 | 107 | 113
CC(=O)N1CCc2cc(CNS(=O)(=O)c3ccc(Cl)s3)ccc21 | 111 | 113
COc1ccccc1Cn1c(C2CC(=O)N(c3ccccc3OC)C2)nc2ccccc21 (stereo not given) | 105 | 112
COc1ccc(N2CCN(CCCNC(=O)c3cnn(-c4ccc(F)cc4)c3-n3cccc3)CC2)cc1 | 102 | 106
Cc1cccc(NC(=O)CSc2nc3ccccc3nc2N2CCOCC2)c1C | 107 | 110
CCc1ccc(C(=O)c2cn(CC(=O)Nc3ccc(F)cc3)c3ccc(OC)cc3c2=O)cc1 | 106 | 108
COc1ccc(N2CCN(C(=O)C3CCN(S(=O)(=O)c4cccc5nonc45)CC3)CC2)cc1 | 104 | 98
Cc1ccc(CNC(=O)CCc2nnc3n(C)c(=O)c4sccc4n23)cc1 | 100 | 102
Cc1cccc(-c2nc3c(cnn3-c3ccccc3)c(=O)n2-c2ccc(Cl)cc2)c1 | 104 | 106
CCOC(=O)c1c(C)[nH]c(C)c1S(=O)(=O)N1CCCC(C(=O)Nc2ccc(OC)c(Cl)c2)C1 (stereo not given) | 114 | 110
Cc1cc(-n2c(C)nc3ccccc3c2=O)ccc1NC(=O)c1cccc([N+](=O)[O-])c1 | 112 | 114
COc1ccc(CCNC(=O)CCc2c(C)nc3c(c(C)nn3-c3ccccc3)c2C)c(OC)c1 | 104 | 107
Cc1cc(C)c2oc(C(=O)Nc3ccc(S(=O)(=O)N4CCC(C)CC4)cc3)cc(=O)c2c1 | 102 | 103
COc1ccc(C(=O)N2CCN(C(=O)COc3ccc(C)cc3)CC2)cc1OC | 105 | 110
O=C(NCCc1csc(-c2ccc(F)cc2)n1)c1ccco1 | 104 | 103
Cc1ccc(O)c(NC(=O)CCSc2nc(-c3ccco3)cc(C(F)(F)F)n2)c1 | 100 | 102
CC(C)Cn1c(=O)c2ccccc2n2c(CCC(=O)Nc3ccc(F)cc3)nnc12 | 105 | 106
COC(=O)c1c(-c2cccs2)csc1NC(=O)COc1ccc(C(C)(C)C)cc1 | 80* | 80*
CCc1ccc(N(CC)C(=O)Cn2cnc3sc(C)c(S(=O)(=O)N4CCN(c5ncccn5)CC4)c3c2=O)cc1 | 108 | 111

Among those listed so far, these have fluorine.
SMILES | PV pol inh | PV pol inh intensity
COc1ccc(N2CCN(CCCNC(=O)c3cnn(-c4ccc(F)cc4)c3-n3cccc3)CC2)cc1 | 102 | 106
CCc1ccc(C(=O)c2cn(CC(=O)Nc3ccc(F)cc3)c3ccc(OC)cc3c2=O)cc1 | 106 | 108
O=C(NCCc1csc(-c2ccc(F)cc2)n1)c1ccco1 | 104 | 103
Cc1ccc(O)c(NC(=O)CCSc2nc(-c3ccco3)cc(C(F)(F)F)n2)c1 | 100 | 102
CC(C)Cn1c(=O)c2ccccc2n2c(CCC(=O)Nc3ccc(F)cc3)nnc12 | 105 | 106

The listing continues:
SMILES | PV pol inh | PV pol inh intensity
Cc1ccc(C(=O)NCc2ccc(N(C)C)cc2)cc1NC(=O)c1nsc2ccccc12 | 102 | 98
O=C(NCC(c1cccs1)S(=O)(=O)c1cccs1)c1cccc(F)c1 (stereo not given) | 102 | 109
COc1cc(OC)c(NC(=O)Cc2ccc(-n3c(C)nc4cccnc43)cc2)cc1Cl | 104 | 100
CCOC(=O)Cn1c(=O)cc(C(F)(F)C(F)(F)F)c2c(C)nn(CC)c21 | 113 | 111
Cc1ccc(S(=O)(=O)c2nnn3c2nc(NC(C)C)c2sccc23)cc1 | 109 | 110
COc1ccc(CCNC(=O)Cn2c(=O)c3cccn3c3ccc(F)cc32)c(OC)c1 | 106 | 115
COc1ccccc1CNC(=O)CCn1c(=O)c2ccccc2n(CC(=O)Nc2cc(Cl)ccc2C)c1=O | 108 | 108
CC(=O)c1ccc(NC(=O)c2cc(-c3ccc4c(c3)OCO4)on2)cc1 | 105 | 109
CCOC(=O)c1ccc(NC(=O)C2CCN(S(=O)(=O)c3ccc4c(c3)CCCC(=O)N4)CC2)cc1 | 104 | 114
CCOC(=O)c1ccc(NC(=O)C2=C(C)Nc3nc(CCCO)nn3C2c2ccc(OC)cc2)cc1 (stereo not given) | 100 | 105

Fetched one by one from above:
SMILES | PV pol inh | PV pol inh intensity
CCOC(=O)c1ccc(NC(=O)C2CCN(S(=O)(=O)c3ccc4c(c3)CCCC(=O)N4)CC2)cc1 | 104 | 114
CC(=O)c1ccc(NC(=O)c2cc(-c3ccc4c(c3)OCO4)on2)cc1 | 105 | 109
Cc1ccc(C(=O)NCc2ccc(N(C)C)cc2)cc1NC(=O)c1nsc2ccccc12 | 102 | 98
COc1ccc(CCNC(=O)Cn2c(=O)c3cccn3c3ccc(F)cc32)c(OC)c1 | 106 | 115
CCOC(=O)Cn1c(=O)cc(C(F)(F)C(F)(F)F)c2c(C)nn(CC)c21 | 113 | 111
COc1cc(OC)c(NC(=O)Cc2ccc(-n3c(C)nc4cccnc43)cc2)cc1Cl | 104 | 100
O=C(NCC(c1cccs1)S(=O)(=O)c1cccs1)c1cccc(F)c1 (stereo not given) | 102 | 109

Returning to the listing, starting 2 compounds before the break.
SMILES | PV pol inh | PV pol inh intensity
CCOC(=O)c1ccc(NC(=O)C2CCN(S(=O)(=O)c3ccc4c(c3)CCCC(=O)N4)CC2)cc1 | 104 | 114
CCOC(=O)c1ccc(NC(=O)C2=C(C)Nc3nc(CCCO)nn3C2c2ccc(OC)cc2)cc1 (stereo not given) | 100 | 105
COc1ccc(C(=O)Nc2ccc3c(c2)CCCN3S(=O)(=O)c2ccc(C)cc2)c(OC)c1 | 111 | 105
CCC1=Nc2cc(C(=O)NCCCOC(C)C)ccc2Sc2ccc(C)cc21 | 99 | 98
Cc1cccc(N2CCN(CCCNC(=O)c3nnc(Cc4c(F)cccc4Cl)o3)CC2C)c1 (stereo not given) | 105 | 108
CCC(C)NC(=O)Cn1c(=O)n(Cc2ccc(C(=O)NCCCOC)cc2)c(=O)c2ccccc21 (stereo not given) | 109 | 109
O=C(CN1C(=O)CCc2cc(S(=O)(=O)N3CCOCC3)ccc21)NCc1ccccc1Cl | 108 | 111
COc1ccc(CCNC(=O)c2c(C)oc3nc(C)nc(N4CCOCC4)c23)cc1OC | 107 | 115
Cc1ccc2occ(CC(=O)N(Cc3ccc(C(C)C)cc3)C3CCS(=O)(=O)C3)c2c1 (stereo not given) | 118 | 117
O=c1c(N2CCN(c3cccc(C(F)(F)F)c3)CC2)csc2ccccc12 | 105 | 109
COc1ccc(CNC(=O)CCCn2nc(C)n3c(cc4sccc43)c2=O)cc1 | 104 | 108
O=C(Nc1ccc2nc3n(c(=O)c2c1)CCCCC3)C(=O)Nc1ccccc1F | 107 | 105
CCOC(=O)CSc1nc2c([nH]c3ccccc32)c(=O)n1-c1ccc(OC)cc1 | 106 | 99
O=C(Nc1cc(Cl)ccc1Cl)c1cc(S(=O)(=O)N2CCc3ccccc3C2)ccc1F | 107 | 110
COc1ccc(-c2nsc(NC(=O)C(C)Oc3ccc(Cl)c(C)c3)n2)cc1 (stereo not given) | 106 | 95
COc1cccc(CNC(=O)c2ccc(NC(=O)N3CC(C)Sc4ccccc43)cc2)c1 (stereo not given) | 112 | 113
Cc1cc(Br)ccc1NC(=O)COc1cc(=O)n(C)c2ccccc12 | 104 | 107
COc1ccc(OCC(=O)Nc2ccc3nn(-c4ccc(OC)cc4)nc3c2)cc1 | 105 | 102
Cc1ccc2c(c1)-c1c(c(C(=O)NCCc3ccccc3)nn1C)CS2 | 98 | 105
CC(C)N(Cc1ccccc1)C(=O)c1cc2ccc3cccnc3c2[nH]1 | 109 | 108
CC1CCc2nn(CC(=O)Nc3ccccc3Cl)cc2C1 (stereo not given) | 102 | 104
O=C(Nc1ccc2nc(SCC(=O)N3CCCC3)sc2c1)c1cccc(Br)c1 | 112 | 117
COc1cc2c(cc1OC)n(CC(=O)c1cccc(Cl)c1)c(=O)n1nc(CCn3nc(C)cc3C)nc21 | 103 | 105
O=C(CSc1nnc(-c2ccncc2)n1-c1ccccc1)Nc1ccc(F)cc1 | 107 | 112
Clc1ccccc1-c1nc(Nc2ccccc2)nc2ccc(Br)cc12 | 102 | 111
Cc1cc(C)cc(-n2ccn(CC(=O)Nc3ccccc3F)c(=O)c2=O)c1 | 109 | 111
Cc1csc2nc(COc3cccc(NC(=O)c4ccccc4F)c3)cc(=O)n12 | 112 | 109
CC(NC(=O)c1ccccc1NC(=O)c1nsc2ccccc12)c1ccccc1 (stereo not given) | 99 | 97
CC(C)c1nn2c(=O)cc(COC(=O)c3ccccc3NC(=O)c3cccc(Cl)c3)nc2s1 | 108 | 117
Cc1ccc(-c2nnc(Nc3cccc(Cl)c3)c3ccccc23)cc1S(=O)(=O)N1CCCCC1 | 104 | 106
COc1ccccc1N=C1SC(C(=O)Nc2ccccc2OC)CC(=O)N1C (stereo not given) | 102 | 107
Cc1ccc(-n2ncc(C(=O)N3CCN(c4cccc(C)c4)C(C)C3)c2C2CCN(C(=O)OC(C)(C)C)CC2)cc1 (stereo not given) | 102 | 91
COc1ccccc1CCNC(=O)c1ccc2c(c1)c(C)c(C)n2C | 111 | 109
CCCOc1ccc(C2c3c(-c4ccccc4O)n[nH]c3C(=O)N2Cc2cccnc2)cc1 (stereo not given) | 99 | 90
COc1ccc(NC(=O)CSc2nc(-c3ccco3)nc3cc(=O)[nH]n23)cc1 | 108 | 107
COc1cccc(C(=O)c2cn(CC(=O)NCCc3ccccc3)c3nc(C)ccc3c2=O)c1 | 115 | 115
Cc1ccc(Cc2nc3ccccc3nc2SCC(=O)NCCc2ccccc2)cc1 | 110 | 107
Cc1ccc(Cn2cccc(C(=O)Nc3cc([N+](=O)[O-])ccc3C)c2=O)cc1 | 110 | 108
CCOc1ccc(CCNC(=O)c2ccc3c(c2)N(Cc2ccccc2F)C(=O)c2ccccc2S3=O)cc1OCC (stereo not given) | 107 | 109
CCCSc1oc(-c2cccs2)nc1S(=O)(=O)c1ccc(C)cc1 | 107 | 111
COc1ccc(N(C)C(=O)C2CCN(S(=O)(=O)c3cc(Br)cc4c3N(C(C)=O)CC4)CC2)cc1 | 106 | 111
Cc1ccc(C(=O)Nc2ccc(C(=O)OCc3cc(=O)n4ccsc4n3)cc2)cc1 | 103 | 103
CCOc1ccccc1CNC(=O)c1cnc2sc(N3CCCCCC3)nn2c1=O | 103 | 109
CN1CCN(C(=O)c2cnn(-c3ccc(F)cc3F)c2C2CCN(C(=O)OC(C)(C)C)CC2)CC1 | 105 | 109
COc1cccc(Cn2c(=O)n(-c3cc(C)cc(C)c3)c(=O)c3oc4ccccc4c32)c1 | 110 | 109
Cc1cccc(NC(=O)N2CCN3CCCCC3C2)c1C (stereo not given) | 110 | 113
CCOc1ccc(NCc2cccn2-c2nnc(N3CCC(C(=O)NCc4cccc(OC)c4)CC3)s2)cc1 | 110 | 110
Cc1nnc(NC(=O)CSCc2cc(=O)c3ccc(C)c(C)c3[nH]2)s1 | 113 | 113
O=C(c1cccc([N+](=O)[O-])c1)N1CCN(CCc2ccncc2)CC1 | 106 | 95
COc1ccc(CCNC(=O)CCCn2c(=O)c3ccccc3n(Cc3cccc(Cl)c3)c2=O)cc1OC | 105 | 111
Cn1cc(S(=O)(=O)N2CCCC2)cc1C(=O)N1CCN(c2cccc(Cl)c2)CC1 | 110 | 113
CCC1Oc2ccc(C)cc2N(CC(=O)NCc2ccc(F)cc2)C1=O (stereo not given) | 104 | 101
Later entries:
SMILES | PV pol inh | PV pol inh intensity
COCCNC(=O)CCC(=O)NNc1nc2ccccc2c2nc(-c3ccccc3)nn12 | 113 | 119
COC(=O)c1c(-c2ccc(Cl)cc2)noc1N1CCN(c2ccccc2OC)CC1 | 104 | 106
Cc1cc(N2CCCCC2)nc2ccc(NC(=O)CCC(=O)N3CCN(c4cccc(Cl)c4)CC3)cc12 | 105 | 107
CNC(=O)c1c(NC(=O)Cc2coc3ccc(C)cc23)sc2c1CCCC2 | 111 | 112
CC(C)c1ccc(S(=O)(=O)c2nnn3c2nc(N2CCOCC2)c2sccc23)cc1 | 113 | 98
Cn1c(=O)c2c(nc(NCc3ccccc3)n2Cc2ccc(Cl)c(Cl)c2)n(C)c1=O | 112 | 115

Screening results (PubChem)

Not all compounds are listed; rates above refer to the full screens.
